gsp agonist – qHTS for Agonist of gsp, the Etiologic Mutation Responsible for Fibrous Dysplasia/McCune-Albright Syndrome: qHTS | gsp mutant cells, cAMP HTRF, 30 min; control for the full effect not named in the record | Potency, µM (titrated, usually from 76.9 µM), without a hit: at the highest dose activation (cAMP increase), hits mostly activators | 340,000 compounds, 0.13% hits; active = well fitted activation curve with a large enough effect; inconclusive = small, poorly fitted or top-dose-only effect, or another doubt; inactive = no such curve, though single readings can be large or run the other way; cell line not stated here;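 note: phosphodiesterase inhibitor Ro 20-1724 added with compounds to block cAMP breakdown; potency is the fitted concentration of half-maximal effect; nearly all actives have a fitted effect of over 60% in size; about a fifth of the inactives were tested at one dose only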
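Cells in DMEM/10% FBS with G418 were pretreated with compounds in DMSO plus […] (300 uM stock) for 30 min at 37C. cAMP was measured by HTRF (cAMP-d2 plus anti-cAMP antibody-K) after 30 min at room temperature.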
ClpP mod – qHTS Assay for Activators of ClpP | ATP-dependent Clp protease proteolytic subunit (Bacillus subtilis (strain 168)), P80244 | purified B. subtilis ClpP, FRET peptide cleavage, 20 min | Potency, µM (series often up to 57.5 µM), without a hit: top-dose activity change, negative = active | 340,000 compounds, 1.9% hits; active = well fitted falling curve with a large enough effect; inconclusive = small, poorly fitted or top-dose-only effect; inactive = no such curve, though single readings can be large or run the other way; note: potency is the fitted concentration of half-maximal effect; the source files actives as falling curves though it sought activators and does not explain the sign; nearly all actives have a fitted effect of over 65% in size; many hits overshoot -100%
Target sequence (P80244 whole entry, looked up): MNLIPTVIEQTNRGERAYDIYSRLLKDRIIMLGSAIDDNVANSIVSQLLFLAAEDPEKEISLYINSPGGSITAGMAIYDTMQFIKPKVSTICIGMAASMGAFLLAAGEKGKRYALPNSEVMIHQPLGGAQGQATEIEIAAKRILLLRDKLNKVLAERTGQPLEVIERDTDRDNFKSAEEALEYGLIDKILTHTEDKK
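FRET quenching reversal measured ClpP activation: 10 microg/mL B. subtilis ClpP at pH 8 with the FRET-FV decapeptide, read at 430 nm after 320 nm excitation. The 20-min minus 0-min signal was scaled between DMSO/no-enzyme wells and ADEP (5.8 microM final).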
gsp antagonist – qHTS for Antagonists of gsp, the Etiologic Mutation Responsible for Fibrous Dysplasia/McCune-Albright Syndrome: qHTS; gsp-mutant cells, cAMP HTRF, 30 min; control for the full effect not named in the record; Potency, µM (highest dose often 76.9 µM), for the others: at the highest dose activity change, negative = inhibition, hits mostly inhibitors; 340,000 compounds, 0.4% hits; AID 624288, 2012; active = falling curve of any shape with a large fitted effect; inconclusive = falling curve, mostly with a smaller effect; inactive = flat or rising curve; cell line not stated here;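 note: intracellular cAMP measured with PDE inhibitor Ro 20-1724 present during compound exposure; potency is the fitted concentration of half-maximal effect; % is set by controls: 0 for no effect and ±100 for the full control effect; nearly all actives have a fitted effect of over 65% in size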
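HTRF cAMP measurement after 30 min RT detection following 30 min, 37C compound treatment alongside […] (added as 300 uM solution) in G418-selected cells seeded at 2000/well and grown 16–24 h.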
PINK1 modulator – A Quantitative High throughput Screen to Identify Chemical Modulators of PINK1 Expression. AID 624263, 2012. 410,000 compounds, 0.2% hits. Potency, µM (doses to about 76.6 µM), for the others: at the top dose activation (PINK1 increase), most hits filed as activators. PINK1 immunofluorescence, high-content cytometry, 24 h; active = well fitted activation curve with a large enough effect; inconclusive = small, poorly fitted or top-dose-only effect; inactive = flat fitted curve, though single readings scatter; cell line not stated here;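 note: potency is the fitted concentration of half-maximal effect; % of control where 0% means no effect; nearly all actives have a fitted effect of over 65% in size; a mitochondrial uncoupler was the plate control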
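Fluorescence from anti-PINK1 antibody, together with nuclear and cell stains, was scanned on a laser-scanning cytometer. Before staining, stable-line cells were incubated 24 hours with compounds at 5 concentrations; primary antibody 12 h at 10 degrees C.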
D2 agonist – Beta-Arrestin HTS for Positive Allosteric Modulators of the Human D2 Dopamine Receptor: Agonists. 360,000 compounds, 0.084% hits. DiscoveRx PathHunter D2 beta-arrestin, luminescence, 90 min; 100% = 57 uM dopamine signal. activation, % (no concentration beside the values). D(2) dopamine receptor (Homo sapiens), P14416; in the data active = activation above about 40%; inconclusive = about 15% to 40%; inactive = below about 15%; note: compound concentration not given in the record; the text of the record calls up to 30% inactive
Target sequence (P14416 whole entry, looked up): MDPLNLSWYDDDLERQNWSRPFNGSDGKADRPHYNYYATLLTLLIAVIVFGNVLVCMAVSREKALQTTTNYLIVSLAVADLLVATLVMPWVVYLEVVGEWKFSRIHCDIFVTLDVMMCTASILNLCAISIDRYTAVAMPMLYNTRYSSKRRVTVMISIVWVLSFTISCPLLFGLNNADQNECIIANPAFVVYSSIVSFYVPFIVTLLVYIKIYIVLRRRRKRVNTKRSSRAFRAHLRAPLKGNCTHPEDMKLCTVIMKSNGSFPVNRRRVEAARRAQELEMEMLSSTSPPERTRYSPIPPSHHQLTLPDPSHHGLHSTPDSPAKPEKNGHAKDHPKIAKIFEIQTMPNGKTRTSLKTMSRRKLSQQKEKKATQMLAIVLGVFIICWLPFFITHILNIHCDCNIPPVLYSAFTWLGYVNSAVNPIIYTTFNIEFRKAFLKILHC
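DiscoveRx PathHunter D2 beta-arrestin cells (2,100/well) attached overnight, then compound-stimulated 90 min at 37 C in HBSS/10 mM HEPES/0.1% Tween-20 buffer; beta-galactosidase complementation read by luminescence after 1 h at ambient temperature. Dopamine 57 uM final (EC100) as control.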
Menin-MLL FL inh – qHTS Assay for Inhibitors Targeting the Menin-MLL Interaction in MLL Related Leukemias: Competition With Fluorescein Labeled MLL-derived Peptide; Fluorescence polarization, fluorescein-MLL peptide displacement from menin; FP activity change, % at 61.4 µM; 290,000 tested, under 10 active; AID 1766, 2009; inconclusive = falling polarisation curve, or a change in total fluorescence; inactive = total fluorescence flat and polarisation flat or rising; no compound was filed as active; the % refers to the polarisation; negative = inhibition;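 note: % of control where 0% means no effect; inhibitors lower the polarisation; unlabelled MLL peptide was the positive control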
Sfp PPTase inh – qHTS Assay for Inhibitors of Bacillus subtilis Sfp phosphopantetheinyl transferase (PPTase). Biochemical Sfp PPTase activity, qHTS. Potency, µM, for inactives: max response, negative = inhibition, most hits filed as inhibitors. 310,000 compounds, 3.5% hits. AID 1490, 2009; active = well fitted inhibition curve with a large enough effect; inconclusive = small, poorly fitted or top-dose-only effect, or another doubt; inactive = no such curve, though single readings can be large or run the other way;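 note: the enzyme is Sfp with the accession as filed and its product quenches rhodamine fluorescence; potency is the fitted concentration of half-maximal effect; 0% = enzyme reaction without inhibitor and -100% = no enzyme wells; top concentration of the series not given in the record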
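Reaction rates are the 30-min fluorescence difference (ex 525, em 598 nm) in wells containing 15 nM Sfp, 5 uM rhodamine-CoA and 12.5 uM BHQ-2-YbbR at pH 7.6 with 10 mM MgCl2.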
* hit, by the source's call; [ ] = another dose, or the depositor's remark.

Screening O=C(COC(=O)c1ccccc1Br)NC(=O)NCc1ccccc1 returned gsp agonist -92%[inhibitor], ClpP mod 0.4%, gsp antagonist 5%, PINK1 modulator 3.0% and D2 agonist -5.9.
`O=C(NCCSCc1ccco1)Nc1ccccc1` gave gsp agonist 0%, ClpP mod -2.7%, gsp antagonist -5%, PINK1 modulator inconclusive, D2 agonist -2.8, Menin-MLL FL inh 4.0 and Sfp PPTase inh -18%.
Screening Cc1cc(C)c(C(=O)C(C)OC(=O)c2ccccn2)cc1C (stereo unspecified) returned gsp agonist 8%, ClpP mod 0.0%, gsp antagonist 0%, PINK1 modulator -0.1%, D2 agonist 0.9 and Sfp PPTase inh -23%.
`O=C(NC(N1CCOCC1)C(Cl)(Cl)Cl)c1ccc(F)cc1` (stereo unspecified) gave gsp agonist 23%[15.4 µM], gsp antagonist -19%, PINK1 modulator 2.7%, D2 agonist 2.8, Menin-MLL FL inh 2.0 and Sfp PPTase inh 9%.
Screening Cc1ccc(S(=O)(=O)Nc2nc(C)cc(NCCN)n2)cc1 returned gsp agonist 13%, ClpP mod -1.9%, gsp antagonist 2%, D2 agonist -1.8, Menin-MLL FL inh 2.4 and Sfp PPTase inh 20%.
`COc1ccc(N(CC(=O)N2CCc3ccccc32)S(=O)(=O)c2c(C)nn(C)c2C)cc1` gave gsp agonist -19%, ClpP mod 0.6%, gsp antagonist -17%, PINK1 modulator 0.4%, D2 agonist -0.3, Menin-MLL FL inh 1.1 and Sfp PPTase inh 16%.
Screening c1ccc(-n2cnc3ccccc32)cc1 returned gsp agonist -20%, ClpP mod 2.5%, gsp antagonist -6%, PINK1 modulator -0.4%, D2 agonist -3.8, Menin-MLL FL inh -1.4 and Sfp PPTase inh 5%.
CCOc1cc(/C=N/n2cnnc2)ccc1O was read as gsp agonist 0%, ClpP mod -14%, gsp antagonist -1%, D2 agonist 1.9, Menin-MLL FL inh -0.6 and Sfp PPTase inh 0%.
Screening COc1ccccc1C(=O)NCC(=O)n1nc(C)cc1C returned gsp agonist -17%, ClpP mod -1.9%, gsp antagonist -12%, PINK1 modulator -2.2%, D2 agonist -2.3, Menin-MLL FL inh 0.6 and Sfp PPTase inh 24%.
N#Cc1ccc(OCC(=O)OCC(=O)c2ccc[nH]2)cc1 was read as gsp agonist 6%[15.4 µM], ClpP mod -0.5%, gsp antagonist -20%, PINK1 modulator 0.1% and D2 agonist 1.0.
For CCCN(CC(=O)Nc1ccccc1OC)C(=O)c1cc2ccccc2o1 the results were gsp agonist -1%[15.4 µM], PINK1 modulator -0.9%, D2 agonist -0.8, Menin-MLL FL inh 4.8 and Sfp PPTase inh 11%.
For O=C(CSc1ncnc2c1oc1ccccc12)N1CCN(c2ccccc2)CC1 the results were gsp agonist 23%, ClpP mod -6.7%, gsp antagonist -5% and D2 agonist 0.2.
Screening COc1cccc(C(=O)c2c[nH]c(C(=O)NCCCN3CCOCC3)c2)c1 returned gsp agonist -13%, ClpP mod -0.3%, gsp antagonist 5%, PINK1 modulator -1.3%, D2 agonist -3.2, Menin-MLL FL inh 0.0 and Sfp PPTase inh 12%.
CCc1nc2c(c(=O)[nH]1)C(CC)(CC)Cc1ccccc1-2 was read as gsp agonist -4%[15.4 µM], ClpP mod -2.2%, gsp antagonist 6%, PINK1 modulator 7.2%, D2 agonist -1.2, Menin-MLL FL inh 0.6 and Sfp PPTase inh 14%.
`CCN1CCC[C@H]1CNCCCn1cnc2c(SC)ncnc21` gave gsp agonist 45%, ClpP mod -5.0%, PINK1 modulator 3.1% and D2 agonist -1.7.
CCCCOc1ccc(C(=O)NCC(=O)NCCOc2ccccc2)cc1 was read as gsp agonist 13%[15.4 µM], gsp antagonist 4%, PINK1 modulator 7.1% and D2 agonist -1.9.
Screening COc1ccccc1-n1c(C)nc2cc(C(=O)O)ccc21 returned gsp agonist -39%[inhibitor], ClpP mod -1.0%, gsp antagonist -26%, PINK1 modulator -2.8%[38.3 µM], D2 agonist 4.1, Menin-MLL FL inh 3.1 and Sfp PPTase inh 5%.
`CCc1noc(C)c1C(=O)N1CCSC1=Nc1cccc(Cl)c1C` gave gsp agonist -9%[15.4 µM], ClpP mod -0.7%, gsp antagonist inconclusive, PINK1 modulator inconclusive, D2 agonist -4.5 and Sfp PPTase inh 7%.
For OCCN=C(c1ccccc1)C12CN3CN(CN(C3)C1)C2 the results were gsp agonist 4%, ClpP mod 0.0%, gsp antagonist 14%, PINK1 modulator 2.3%, D2 agonist -5.3, Menin-MLL FL inh 0.7 and Sfp PPTase inh 7%.
COCCNC(=O)C(=O)N/N=C(\C)CC(=O)Nc1cccc(C(F)(F)F)c1 was read as gsp agonist 5%, gsp antagonist 7%, PINK1 modulator 0.6%, D2 agonist -2.9, Menin-MLL FL inh 4.5 and Sfp PPTase inh 7%.
`Cc1ccc(C)c(NCC(=O)c2ccc(Cl)cc2)c1` gave gsp agonist -46%[inhibitor], gsp antagonist 10%, PINK1 modulator 13%, D2 agonist -13, Menin-MLL FL inh -5.1 and Sfp PPTase inh -11%.
`O=C(COc1ccc([N+](=O)[O-])cc1)NC(=O)NC1CCS(=O)(=O)C1` (stereo unspecified) gave gsp agonist -27%, ClpP mod 1.8%, gsp antagonist 10%, PINK1 modulator 1.6% and D2 agonist -3.0.
`O=C(NNS(=O)(=O)c1ccccc1)C1CCN(S(=O)(=O)c2ccccc2)CC1` gave gsp agonist -9%, ClpP mod -0.4%, gsp antagonist -15%, PINK1 modulator -1.3%, D2 agonist -1.5, Menin-MLL FL inh -0.1 and Sfp PPTase inh -13%.
Screening CC(/C=N/Nc1ncc(C)c(=O)[nH]1)=C\c1ccccc1 returned gsp agonist -13%[15.4 µM], gsp antagonist -5%, PINK1 modulator 2.5%, D2 agonist -1.6, Menin-MLL FL inh 0.4 and Sfp PPTase inh 3%.
`CCOC(=O)C(C)n1cnc2c(nnn2Cc2ccc(Cl)cc2)c1=O` (stereo unspecified) gave gsp agonist 2%, ClpP mod -1.9%, gsp antagonist 3%, PINK1 modulator 1.2%[38.3 µM], D2 agonist -0.1, Menin-MLL FL inh 5.1 and Sfp PPTase inh 9%.
`CN(/C=C/C(=C/C=[N+](C)c1ccccc1)OCCCS(=O)(=O)[O-])c1ccccc1` gave gsp agonist inconclusive, ClpP mod -4.9%, gsp antagonist 4%, PINK1 modulator 2.2%, D2 agonist 1.8 and Menin-MLL FL inh inconclusive.
Screening CCOC(=O)c1cccc(NC(=O)C2CCN(c3ncnc4c3nc3n4CCCCC3)CC2)c1 returned gsp agonist -4%, ClpP mod -2.2%, gsp antagonist inconclusive, PINK1 modulator 0.9%, D2 agonist 4.4, Menin-MLL FL inh -1.2 and Sfp PPTase inh 8%.
Screening COc1ccc(CCNS(=O)(=O)c2ccc3c(c2)OCCO3)cc1 returned gsp agonist 5%, ClpP mod -0.7%, gsp antagonist 4%, PINK1 modulator 0.8%, D2 agonist -1.9, Menin-MLL FL inh -1.3 and Sfp PPTase inh 11%.
CCOc1ccccc1NC(=O)C1C2C=CC(C2)C1C(=O)O (stereo unspecified) was read as gsp agonist -35%[inhibitor], ClpP mod -2.5%, gsp antagonist 15%, PINK1 modulator -1.8%[38.3 µM], D2 agonist -0.3, Menin-MLL FL inh -1.3 and Sfp PPTase inh -8%.
For CCOc1cccc(C2/C(=C(/O)c3ccc4c(c3)CC(C)O4)C(=O)C(=O)N2Cc2cccnc2)c1 (stereo unspecified) the results were gsp agonist inconclusive, ClpP mod 1.2%, gsp antagonist 9%, PINK1 modulator 2.4%, D2 agonist -3.3 and Sfp PPTase inh 2%.
Screening CC1CCN(c2nnc(-c3cccs3)c3ccccc23)CC1 returned gsp agonist -49%[inhibitor], ClpP mod -1.1%, gsp antagonist inconclusive, PINK1 modulator 21%, D2 agonist -3.3, Menin-MLL FL inh 3.0 and Sfp PPTase inh -3%.
For COc1ccc(NC(=O)CCc2nc3ccccc3s2)c(OC)c1 the results were gsp agonist 2%, gsp antagonist -6%, PINK1 modulator 3.4%, D2 agonist -1.0, Menin-MLL FL inh 0.1 and Sfp PPTase inh 0%.
For N#Cc1ccccc1OCC(=O)NNC(=O)CNC(=O)c1cccc(Br)c1 the results were gsp agonist -6%, ClpP mod -1.0%, gsp antagonist 4%, PINK1 modulator -1.3% and D2 agonist -4.1.
Screening O=C(Cc1ccc(NC(=O)C2CCCN(C(=O)C3CC3)C2)cc1)Nc1cccc(C(=O)N2CCCCC2)c1 (stereo unspecified) returned ClpP mod -0.4%, gsp antagonist 5%, PINK1 modulator 0.5% and D2 agonist -0.8.
`CCOC(=O)c1ccc(NC(=O)Nc2ccc(Cl)cn2)cc1` gave gsp agonist 9%[15.4 µM], gsp antagonist 18%, PINK1 modulator 4.1%, D2 agonist -4.5, Menin-MLL FL inh 1.4 and Sfp PPTase inh -11%.
N#C/C(=C\c1cn(CCOc2ccccc2)c2ccccc12)C(=O)NCC1CCCO1 (stereo unspecified) was read as gsp agonist -21%, ClpP mod inconclusive, gsp antagonist -13%, PINK1 modulator 4.4%, D2 agonist -3.4, Menin-MLL FL inh 2.1 and Sfp PPTase inh -6%.
`CCN(CCCNC(=O)CN(C)S(=O)(=O)c1cccc2nsnc12)c1cccc(C)c1` gave gsp agonist 4%, ClpP mod 0.9%, gsp antagonist -23%, PINK1 modulator 0.7%, D2 agonist -1.0, Menin-MLL FL inh 0.7 and Sfp PPTase inh 0%.
Screening Cc1cccc(C)c1OCCOC(=O)c1n[nH]c2ccccc12 returned gsp agonist 19%, gsp antagonist -2%, PINK1 modulator 1.3%, D2 agonist 2.2, Menin-MLL FL inh 0.6 and Sfp PPTase inh 2%.
Screening CCOc1ccc(NS(=O)(=O)c2cc(C(=O)NCCCN3CCOCC3)ccc2C)cc1 returned gsp agonist -57%[inhibitor], ClpP mod -0.6%, gsp antagonist 0%, PINK1 modulator -0.4% and D2 agonist -0.7.
